Screening data as filed in PubChem BioAssay.
EBNA-1 inh: EBNA-1 DNA-binding inhibitors, primary screen, biochemical, fluorescence polarization | inhibition, % at 14.8 µM | 300,000 tested, 0.34% active | AID 1950, 2009; in the data active = inhibition above about 28%
ZTA DNA inh: counter-screen for EBNA-1 inhibitors: inhibitors of Epstein-Barr virus ZTA; P03206; ZTA-DNA binding, fluorescence polarization; inhibition, % at 11 µM; 320,000 tested, 0.15% active; AID 2234; in the data active = inhibition above about 33%
PAFAH1B3 inh: PAFAH1B3 enzyme inhibitors, primary screen, biochemical, fluorescence polarization, human. recombinant PAFAH1B3, FP-rhodamine probe. 340,000 tested, 0.28% active. inhibition, % at 3.39 µM;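 active = inhibition above the screen-wide average of all tested compounds plus 3 SD, cut at about 25% in these data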;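 note: 0% = enzyme with DMSO only and 100% = wells lacking PAFAH1B3 protein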
PAFAH2 inh: PAFAH2 enzyme inhibitors, primary screen, biochemical, fluorescence polarization, human; Platelet-activating factor acetylhydrolase 2, cytoplasmic (Homo sapiens), Q99487; recombinant PAFAH2, FP-rhodamine activity probe; inhibition, % at 3.39 µM; 340,000 tested, 0.99% active;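 active = inhibition above the mean over all tested compounds plus 3 SD, cut at about 30% in these data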;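 note: inhibitors block probe labeling of enzyme so polarization drops; 0% = enzyme with DMSO and 100% = wells lacking PAFAH2 protein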
LYPLA2 inh: LYPLA2 inhibitors, primary screen, counter-screen for PME1 inhibitor project, biochemical, fluorescence polarization, FP-Rh probe ABPP; Acyl-protein thioesterase 2 (Homo sapiens), O95372; recombinant LYPLA2; inhibition, % at 5.9 µM; 320,000 tested, 0.38% active;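 active = inhibition above the screen-wide mean plus 3 SD, limit set per campaign, cut at about 26% in these data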;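 note: 0% = LYPLA2 with DMSO and 100% = wells lacking LYPLA2 enzyme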
Target sequence (O95372 whole entry, looked up): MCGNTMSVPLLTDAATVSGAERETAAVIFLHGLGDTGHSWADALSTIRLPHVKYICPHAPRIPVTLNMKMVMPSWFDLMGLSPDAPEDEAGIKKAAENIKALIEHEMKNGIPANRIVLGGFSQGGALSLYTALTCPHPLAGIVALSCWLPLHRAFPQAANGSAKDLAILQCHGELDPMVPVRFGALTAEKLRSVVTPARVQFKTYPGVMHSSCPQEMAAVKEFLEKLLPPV
GSTO1 inh: inhibitors of recombinant GSTO1, primary screen, counter-screen for RBBP9 inhibitor project, biochemical, fluorescence polarization; activity-based probe fluorescence polarization; inhibition, % at 5.96 µM; 300,000 tested, 1.1% active; AID 1974, 2009;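 active = inhibition above the campaign mean inhibition plus 3 SD, cut at about 35% in these data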;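 note: 0% = GSTO1-1 with DMSO and 100% = wells lacking GSTO1-1 enzyme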
PAD4 inh: human PAD4 inhibitors, primary screen, biochemical, fluorescence polarization, 1536-well format; Protein-arginine deiminase type-4 (Homo sapiens), Q9UM07; recombinant PAD4, RCA probe fluorescence polarization; inhibition, % at 6.36 µM; 330,000 tested, 0.41% active;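 active = percent inhibition above a cutoff equal to the mean of all tested compounds plus 3 SD, cut at about 15% in these data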;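 note: 0% = PAD4 with RCA probe and DMSO and 100% = probe without PAD4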
Target sequence (Q9UM07 whole entry, looked up): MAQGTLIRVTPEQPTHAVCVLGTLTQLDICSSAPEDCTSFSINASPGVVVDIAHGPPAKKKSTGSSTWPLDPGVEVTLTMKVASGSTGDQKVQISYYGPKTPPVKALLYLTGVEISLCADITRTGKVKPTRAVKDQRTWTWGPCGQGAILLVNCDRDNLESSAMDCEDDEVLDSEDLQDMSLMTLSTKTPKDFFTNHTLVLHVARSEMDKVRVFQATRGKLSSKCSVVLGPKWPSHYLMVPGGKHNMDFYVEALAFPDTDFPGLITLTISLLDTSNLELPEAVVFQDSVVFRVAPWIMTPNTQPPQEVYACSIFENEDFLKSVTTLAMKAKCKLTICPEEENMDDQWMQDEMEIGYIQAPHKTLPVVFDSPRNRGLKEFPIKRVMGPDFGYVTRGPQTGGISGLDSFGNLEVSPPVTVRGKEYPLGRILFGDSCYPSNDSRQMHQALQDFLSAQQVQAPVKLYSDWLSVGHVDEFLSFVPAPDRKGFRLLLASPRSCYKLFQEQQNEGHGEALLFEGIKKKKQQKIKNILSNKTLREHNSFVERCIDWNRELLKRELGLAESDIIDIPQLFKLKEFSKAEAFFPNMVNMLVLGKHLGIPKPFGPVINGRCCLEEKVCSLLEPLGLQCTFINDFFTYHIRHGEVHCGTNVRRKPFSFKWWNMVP
LYPLA1 counter: LYPLA1 inhibitors, primary screen, counter-screen for PME1 inhibitor project, biochemical, fluorescence polarization, FP-Rh probe ABPP | Acyl-protein thioesterase 1 (Homo sapiens), O75608 | 320,000 tested, 0.16% active | recombinant LYPLA1 | inhibition, % at 5.9 µM;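 active = inhibition above the mean of all tested compounds plus 3 SD, set per campaign, cut at about 14% in these data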;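 note: inhibitors block serine hydrolase probe labeling of LYPLA1 so polarization falls; 0% = enzyme with DMSO and 100% = wells lacking LYPLA1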
The depositor's hits bear a star; . = not tested or not shown. These rows are one share of the data; rates above refer to the full screens.

SMILES	EBNA-1 inh	ZTA DNA inh	PAFAH1B3 inh	PAFAH2 inh	LYPLA2 inh	GSTO1 inh	PAD4 inh	LYPLA1 counter
CC12CN(Cc3ccccc3)CC(C)(CN(Cc3ccccc3)C1)C2=O	-7	-5	11	5	2	5	-3	-1
Cc1ccc(C(=O)Oc2coc(CSc3nnc(NC(=O)C4CC4)s3)cc2=O)cc1	4	11	-12	3	0	8	-4	-2
COc1ccc(-n2c(SCC(=O)Nc3nc(C)cs3)nnc2-c2ccoc2C)cc1	-7	1	-5	-6	1	8	-4	2
COC(=O)c1ccc(/C=C/C(=O)OCC(=O)Nc2sccc2C(N)=O)cc1	.	.	8	9	.	.	-1	.
Cn1c2ccccc2c2c(C(=O)N3CCN(c4ccc(F)cc4)CC3)cn(C3CCCC3)c(=O)c21	7	7	4	6	-2	3	6	-2
COC(=O)CSc1nnc(-c2cccnc2)n1-c1cccc(OC)c1	1	3	-2	-4	-3	-5	2	0
CN(C)c1cccc(C(=O)NCCCn2ccc3ccccc32)c1	-14	16	-1	-2	5	0	-1	0
O=C(c1noc2c1CCCC2)N1CCN(c2ccc(F)cc2)CC1	3	12	-9	-2	0	-5	-5	-1
c1ccc(Nc2cccc3ccccc23)cc1	.	.	12	5	.	.	-6	.
O=C(c1cccc(S(=O)(=O)N2CCOCC2)c1)N1CCN(C/C=C/c2ccccc2)CC1	.	-6	-1	-1	1	.	-2	1
Nc1nc2n(n1)C(c1ccc(Cl)cc1)CC(c1ccc(F)cc1)N2 (configuration not stated)	6	17	3	0	10	1	5	1
Cc1cc(C(F)(F)F)nc(SCC(=O)Nc2cc(C)on2)n1	6	7	1	-4	5	8	-4	4
CCC1(c2ccccc2)NC(=O)N(CC(=O)N(c2ccccc2)C2CCS(=O)(=O)C2)C1=O (configuration not stated)	.	.	4	3	.	.	-2	.
COC(=O)c1[nH]c2ccccc2c1NC(=O)CN1CCN(c2cccc(Cl)c2)CC1	-7	7	9	17	6	5	-1	-3
O=C(NCCc1ccc(Cl)cc1)C1CCC(CNc2c(N3CCCCC3)c(=O)c2=O)CC1 (configuration not stated)	8	14	-3	11	13	0	-1	6
CCN1CCN(c2cc(C)c3cc(NC(=S)N4CCN(c5ccccc5F)CC4)ccc3n2)CC1	2	-25	2	4	2	10	4	4
CCCCn1c(-c2ccc(Cl)c(Cl)c2)nc2cc3[nH]c(=O)c(C(C)C)nc3cc21	-5	-5	-3	0	-12	1	-6	-7
COc1cc2c(C(=O)N3CCN(C)CC3)c(CSc3ccccc3)n(C)c2cc1Br	-2	-1	5	-5	3	1	0	0
CNC(=S)N/N=C/c1ccc(OCC(=O)Nc2c(C)cc(C)cc2C)c(OC)c1	6	23	2	2	5	4	-4	4
COc1ccc(C[C@H]2CN3C(=NC[C@H]3C)N2CCNC(=O)c2ccc(C)c(Br)c2)cc1	-4	5	3	-3	-6	-1	-5	-1
Cc1cccc(OCCn2cc(/C=N/NC(=O)c3ccncc3)c3ccccc32)c1	0	12	23	-15	7	-12	-2	3
Cc1ccc(/C=C/c2onc(C)c2S(=O)(=O)N2CCC(C(=O)N3CCN(C)CC3)CC2)cc1	-5	8	8	1	1	0	4	-4
O=C(Oc1ccc(OC(=O)c2ccco2)c(S(=O)(=O)c2ccc(Cl)cc2)c1)c1ccco1	4	-17	-4	4	-2	24	1	-5
CCOC(=O)c1[nH]c2ccc(F)cc2c1NC(=O)C(C)N1CCc2cc(OC)c(OC)cc2C1 (configuration not stated)	-8	-17	9	2	-4	1	-5	-4
Cc1c(OCC(=O)NCCN2CCOCC2)ccc2c1oc(=O)c1ccccc12	5	-2	10	9	0	2	-2	-3
COc1ccc(-c2nn(-c3ccccc3)cc2/C=N/N=C(N)N)cc1OC	-7	10	-1	-10	-4	-8	-6	-3
COC(=O)[C@H](CC(C)C)NS(=O)(=O)N(Cc1ccccc1)[C@@H](CC(C)C)C(=O)OC	.	-5	13	2	4	.	6	-1
N#Cc1c(SCC(=O)Nc2nccs2)sc2c(O)cc(=O)[nH]c12	-8	1	22	32*	-15	3	-18	-19
Cc1ccc(SCc2nc3ccccc3n2CC(=O)Nc2ccc(Cl)cc2)cc1	11	0	0	-4	-6	-9	-4	-6
CCCCN1C(=N)N([C@@H](C)CN2CCC[C@H]2CN2C(N)=NC[C@@H]2Cc2ccccc2)C[C@H]1[C@H](C)CC	.	.	9	-1	.	.	4	.
CCOC(=O)c1sc(NC(=O)CNCc2ccccn2)c(C(=O)OCC)c1C	-2	-5	4	-14	1	5	-1	2
CC(=O)Nc1ccc(S(=O)(=O)N(C)CC(=O)NNc2c(F)c(F)cc(F)c2F)cc1	.	.	-6	4	.	.	4	.
Cc1ccc(C)c(S(=O)(=O)C(C#N)c2nc3ccccc3nc2N2CCCC2)c1 (configuration not stated)	-2	-7	9	-2	9	66*	1	2
COc1ccc(S(=O)(=O)Nc2cc(Cl)ccc2OC)cc1	6	-5	4	1	-5	6	-3	1
COc1ccc(CN(C)CC(=O)Nc2cc(OC)c([N+](=O)[O-])cc2C)c(OC)c1	-5	-6	6	6	7	-8	2	-4
CCC1CCCCN1CCCNC(=O)C1CCN(Cc2nc(-c3ccc(Cl)cc3)oc2C)CC1 (configuration not stated)	-6	0	9	1	3	6	-1	2
COc1ccc(S(=O)(=O)N2CCN(CC(=O)NCCc3cccs3)CC2)cc1	.	16	14	7	1	.	1	0
COC(=O)c1cc(=O)n(CCc2ccc(OC)c(OC)c2)c(=Nc2ccc(F)c(Cl)c2)s1	10	-6	1	-16	2	7	-2	2
C=CCOc1nc2c(c(=O)n(Cc3ccc(Cl)c(Cl)c3)c(=O)n2C)n1C	-7	-18	3	-2	-1	8	-3	-1
Cc1ccccc1OCCNC(=O)/C=C/c1ccc([N+](=O)[O-])cc1	3	15	2	1	-5	7	2	-1
O=C(c1ccccc1F)N1CCN(c2ncccn2)CC1	4	16	10	-5	0	0	0	-2
COc1cc(/C=N/NC(N)=S)ccc1OCC(=O)Nc1ccc(C)c(C)c1	-23	5	-2	-2	-5	14	-14	-3
Cn1c(=O)c2c(nc(NCC3CCCC(CN)C3)n2Cc2ccc(Cl)cc2Cl)n(C)c1=O (configuration not stated)	3	2	2	3	2	-4	-8	-1
COc1ccc(OC)c(S(=O)(=O)Nc2ccccc2C)c1	-13	-8	2	12	6	4	-8	3
CCCCCOc1ccc(C(=O)C(c2ccccc2)N2CCOCC2)cc1 (configuration not stated)	-19	4	9	-7	4	-4	-8	3
CN1CCN(S(=O)(=O)c2ccc(N3CCN(c4ccc(O)cc4)CC3)c([N+](=O)[O-])c2)CC1	-4	3	-9	4	1	17	-3	-4
CCN(CC(=O)Nc1cc(Cl)ccc1C)C(=O)CCS(=O)(=O)c1ccc(C)cc1	-1	14	0	1	1	8	1	0
COc1cnc(-c2ccccn2)nc1Oc1cccc(Cl)c1	8	-3	7	-3	7	5	2	1
O=C(CN1C(=O)NC(c2ccccc2)(c2ccccc2)C1=O)N1CCN(c2ccc(F)cc2)CC1	.	-5	1	-4	4	.	-1	1
Cc1ccc(S(=O)(=O)C(C#N)c2nc3ccccc3nc2N2CCN(C)CC2)cc1C (configuration not stated)	-5	-9	2	10	-1	11	1	-4
C/C(=N\OC(=O)c1ccccc1F)c1nccs1	-14	-18	-7	22	-5	2	-7	4
Cn1c2ccccc2c2c(C(=O)N3CCN(c4ccccn4)CC3)cn(C3CCCC3)c(=O)c21	5	-15	5	11	0	-2	1	5
Cc1csc(Nc2cccc3ccccc23)n1	-10	3	-9	-9	-7	3	-2	-2
C=CCOC(=O)C1=C(C)N=C2SCCC(=O)N2C1c1ccc(OC(=O)c2ccco2)cc1 (configuration not stated)	4	-3	-2	-9	-6	7	2	-5
COc1ccc(C(O)Cn2c(=N)n(CCCN(C)C)c3ccccc32)cc1 (configuration not stated)	4	6	-2	-3	4	6	-1	2
O=C(c1ccc(F)cc1)N1CCN(c2ncccn2)CC1	1	-5	-4	-2	3	1	-2	-2
Cc1ccc(-n2nc3c(N4CCC(C(=O)N5CCC(C(N)=O)CC5)CC4)nnc(C)c3c2C)cc1	5	-13	-2	5	16	-2	-5	-3
CCOc1ccc(C(=O)C(c2ccccc2)N2CCOCC2)cc1 (configuration not stated)	-12	-12	14	0	0	-7	2	-1
O=C(c1ccccc1C(=O)N1CCN(c2ccccc2)CC1)N1CCN(c2ccccc2)CC1	2	-9	4	-4	-5	-1	7	-1
Cn1c(=O)c(=O)n(C)c2cc(N3CCCCC3)c(NS(=O)(=O)c3ccc(Br)cc3)cc21	2	-27	-6	-3	11	13	-5	6

11 of the compounds above, comma-delimited.
compound,EBNA-1 inh,ZTA DNA inh,PAFAH1B3 inh,PAFAH2 inh,LYPLA2 inh,GSTO1 inh,PAD4 inh,LYPLA1 counter
COc1cnc(-c2ccccn2)nc1Oc1cccc(Cl)c1,8,-3,7,-3,7,5,2,1
O=C(CN1C(=O)NC(c2ccccc2)(c2ccccc2)C1=O)N1CCN(c2ccc(F)cc2)CC1,.,-5,1,-4,4,.,-1,1
Cc1ccc(S(=O)(=O)C(C#N)c2nc3ccccc3nc2N2CCN(C)CC2)cc1C (configuration not stated),-5,-9,2,10,-1,11,1,-4
C/C(=N\OC(=O)c1ccccc1F)c1nccs1,-14,-18,-7,22,-5,2,-7,4
Cn1c2ccccc2c2c(C(=O)N3CCN(c4ccccn4)CC3)cn(C3CCCC3)c(=O)c21,5,-15,5,11,0,-2,1,5
Cc1csc(Nc2cccc3ccccc23)n1,-10,3,-9,-9,-7,3,-2,-2
C=CCOC(=O)C1=C(C)N=C2SCCC(=O)N2C1c1ccc(OC(=O)c2ccco2)cc1 (configuration not stated),4,-3,-2,-9,-6,7,2,-5
COc1ccc(C(O)Cn2c(=N)n(CCCN(C)C)c3ccccc32)cc1 (configuration not stated),4,6,-2,-3,4,6,-1,2
O=C(c1ccc(F)cc1)N1CCN(c2ncccn2)CC1,1,-5,-4,-2,3,1,-2,-2
Cc1ccc(-n2nc3c(N4CCC(C(=O)N5CCC(C(N)=O)CC5)CC4)nnc(C)c3c2C)cc1,5,-13,-2,5,16,-2,-5,-3
CCOc1ccc(C(=O)C(c2ccccc2)N2CCOCC2)cc1 (configuration not stated),-12,-12,14,0,0,-7,2,-1

Other structures:
SMILES	EBNA-1 inh	ZTA DNA inh	PAFAH1B3 inh	PAFAH2 inh	LYPLA2 inh	GSTO1 inh	PAD4 inh	LYPLA1 counter
O=C(Oc1cc2oc(=O)c3c(c2cc1Cl)CCCC3)c1cccs1	-4	-1	3	-14	3	-1	4	-3
CC(C)C(NC(=O)c1ccccc1)C(=O)OCC(=O)N1CCN(c2ccccc2)CC1 (configuration not stated)	.	1	3	6	3	.	-4	-2
Cc1ccc(C(=O)Oc2ccc(C(=O)COC(=O)C3CC(=O)N(Cc4ccco4)C3)cc2)cc1 (configuration not stated)	-6	3	7	21	-3	-2	-11	2
COc1cc(/C=N/N(C)C)ccc1OC(=O)c1ccco1	-6	-4	4	4	3	4	0	0
O=C(CCC(=O)N1CCOc2ccc(Cl)cc21)NCCN1CCOCC1	-6	7	0	5	4	7	-3	-3
CCOC(=O)C1CCN(C(=O)c2ccc3c(c2)NC(=O)/C(=C/c2ccccc2)S3)CC1	-12	-2	3	1	12	-84	-2	3
COc1cc(/C=C(\C#N)C(=O)NCC2CCCO2)ccc1OC(=O)c1ccco1 (configuration not stated)	.	3	15	3	9	.	-8	1
Cn1c(OCc2cccnc2)nc2c1c(=O)n(Cc1ccc(F)cc1)c(=O)n2C	0	-11	2	-4	0	0	-5	-1
